UUG fidelity: yeast start codon fidelity modulation; S. cerevisiae UUG-firefly luciferase reporter, luminescence/redox ratio; activity score, % at 18.7 µM; actives 0.13% (n = 350,000);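 active means replicate mean at a twofold rise or more, about +100% in these data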;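 further: firefly luciferase made from a UUG start codon reports start codon fidelity; reporter light over untreated wells divided by growth signal over untreated wells; some hits fall short of that in this replicate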
MT1-MMP act inh: inhibitors of human MT1-MMP activation. AID 651647. actives 0.061% (n = 360,000). P50281. HT1080 RFP-PRO-GFP cells, GFP/RFP ratio fluorescence, overnight; percent of plate control window, DMSO zero. GFP/RFP ratio change, % at 20 µM;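 active means GFP/RFP ratio change of at least 30% with cell ATP level not reduced by more than half and red fluorescence within 50% of control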; further: strong numbers were not always called active
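Assay system – RFP-PRO-GFP reporter HT1080 cells · Compound dosing – single dose of 20 µM compound, 1% DMSO final · Incubation – overnight compound exposure at 37 °C · Measure – GFP/RFP fluorescence ratio · Benchmarks – DMSO wells and RFP-L50D-GFP cells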
MT1-MMP act inh RFP: further read-out of MT1-MMP act inh, marked with its call; RFP signal change, %; measured here: RFP expression control read;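 0 = vehicle wells; hits needed this value within 50% of zero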
Active calls of the source: *. An excerpt; count on the stated rates, not on these rows.

SMILES	UUG fidelity	MT1-MMP act inh	MT1-MMP act inh RFP
Cc1ccc(OCC(=O)NNC(=O)C2CSC3(C)CCC(=O)N23)cc1C (stereo unspecified)	-16	5	4
CCOc1ccc(NC(=O)CN(C)C(=O)C2CC(=O)N(Cc3ccco3)C2)cc1OCC (stereo unspecified)	-16	-2	1
COc1cc(NC(=O)c2cc(S(=O)(=O)N3CCCCC3)ccc2N2CCOCC2)cc(OC)c1OC	10	4	4
COc1cc(NS(=O)(=O)c2ccc(-n3cccn3)cc2)cc(OC)c1	-12	7	-20
CCN1C[C@@H]2[C@@H]3C(=O)N(C)C(=O)[C@@H]3[C@](Cc3ccccc3)(C(=O)OC)N2C1=NCc1ccccc1	-6	0	3
Cc1ccc(C(=O)OC(C)C(=O)NC2CCCCC2)cc1S(=O)(=O)N1CCCCC1 (stereo unspecified)	-8	-1	-2
Oc1cccnc1CN1CCOCC1	-5	-2	1
CC1CC(C)(C)CC2(C1)NC(=O)N(CC(=O)Nc1c(F)cccc1F)C2=O (stereo unspecified)	-30	4	1
COC(=O)C[C@@H]1C[C@H]2c3cc(NC(=O)CC4CC4)ccc3O[C@H]2[C@@H](CO)O1	-15	1	3
Cc1ccc(C(=O)C=CC=Cc2ccccc2)cc1	-21	-2	-3
CC(C)C[C@H](NC(=O)CC[C@H]1O[C@@H](n2ccc(=O)[nH]c2=O)[C@H](O)[C@@H]1O)C(=O)O	-1	2	4
CCCCn1c(N)c(N(CCOC)C(=O)c2c(CC)noc2C)c(=O)[nH]c1=O	-18	-1	4
CN(CCc1ccccc1)C(=O)c1ccc(NC(=O)Cc2cccc(NC(=O)C3CCN(C(=O)c4ccccc4)CC3)c2)cc1	-9	-3	-5
Cc1ccc(C(=O)N2CCCc3ccccc32)c(Cl)c1	-11	-1	0
CCOC(=O)[C@@H](NC(=O)/C=C/[C@H]1O[C@@H](n2ccc(=O)[nH]c2=O)[C@H](O)[C@@H]1O)C(C)C	-2	1	-1
O=c1cc(-c2ccc(O)cc2)oc2cc(O)c([C@@H]3O[C@H](CO)[C@@H](O)[C@H](O)[C@H]3O)c(O)c12	-3	2	4
O=C(Nc1cc(S(=O)(=O)N2CCOCC2)ccc1Cl)c1cc2ccccc2o1	20	7	-7
CCc1ccc(N2C(=O)C(Cl)=C(Nc3ccc(C(=O)N4CCCC4)cc3)C2=O)cc1	-6	0	2
CC(NC(=O)CSc1ccc(S(=O)(=O)N2CCOCC2)cn1)c1ccc(Cl)cc1Cl (stereo unspecified)	-1	0	-12
Cc1cccc(CSc2ccc(S(=O)(=O)N3CCCC3)cn2)c1	-18	0	-3
CC1(c2ccccc2)NC(=O)N(CC(=O)NNC(=O)c2cccc(Cl)c2)C1=O (stereo unspecified)	-10	1	1
CC1(C(=O)NCc2cccs2)CCN1C(=O)Cc1ccc(Cl)cc1Cl (stereo unspecified)	2	-3	-2
CC(=O)NC(Cc1ccccc1)C(=O)Oc1ccc2ccccc2c1 (stereo unspecified)	0	-2	0
Cc1cc(C(=O)Nc2ccc(Cl)c(S(=O)(=O)N3CCOCC3)c2)c2ccccc2n1	6	0	-6
COc1ccc(CN(C2CC2)S(=O)(=O)c2ccccc2Br)cc1	-10	-3	-22

Some entries already given, showing only UUG fidelity and MT1-MMP act inh:
molecule | UUG fidelity | MT1-MMP act inh
COC(=O)C[C@@H]1C[C@H]2c3cc(NC(=O)CC4CC4)ccc3O[C@H]2[C@@H](CO)O1 | -15 | 1
CC1CC(C)(C)CC2(C1)NC(=O)N(CC(=O)Nc1c(F)cccc1F)C2=O (stereo unspecified) | -30 | 4
Oc1cccnc1CN1CCOCC1 | -5 | -2
COc1cc(NC(=O)c2cc(S(=O)(=O)N3CCCCC3)ccc2N2CCOCC2)cc(OC)c1OC | 10 | 4
CCN1C[C@@H]2[C@@H]3C(=O)N(C)C(=O)[C@@H]3[C@](Cc3ccccc3)(C(=O)OC)N2C1=NCc1ccccc1 | -6 | 0
Cc1ccc(C(=O)N2CCCc3ccccc32)c(Cl)c1 | -11 | -1

Further compounds
SMILES	UUG fidelity	MT1-MMP act inh	MT1-MMP act inh RFP
O=C(NCc1ccccn1)c1cccc(S(=O)(=O)N2CCCCC2)c1	-6	1	-1
O=S(=O)(Nc1ccc(C(O)(C(F)(F)F)C(F)(F)F)cc1)c1ccc(Cl)c2nonc12	-12	-64	5
COc1ccc(OCCN2CCC(C(=O)NC(c3ccc(Cl)cc3)c3cccnc3)CC2)cc1 (stereo unspecified)	-15	4	4
O=C(Nc1cccc(S(=O)(=O)N2CCCCC2)c1)C1=NN(c2ccccc2)C(=O)CC1	-9	1	-8
COc1cc(C)ccc1OCC(=O)NC1CCCCCC1	-2	-1	-3
O=C(C[C@H]1C[C@H](C(=O)N2CCCCC2)[C@@]2(CCc3ccccc3)c3[nH]c4cc(-c5ccco5)ccc4c3CCN2C1=O)NCCC1=CCCCC1	-16	-7	-4
COC(=O)C1(C(=O)OC)C2C(=O)C3C(C21)C3(C(=O)OC(C)(C)C)C(=O)OC(C)(C)C (stereo unspecified)	0	-3	1
CC1CCN(C(=O)COC(=O)CCC(=O)c2ccc(F)cc2)CC1	-29	-4	2
COc1cccc(CN(C)C(=O)c2cccc(S(=O)(=O)N3CCN(c4ccccc4)CC3)c2)c1OC	-31	3	-28
CCC(=NNS(=O)(=O)c1ccc(C)cc1)c1ccccc1	-6	-4	-2
O=C1NC(=O)C2(N1)C(=O)c1cccc3cccc2c13 (stereo unspecified)	-3	-83	7
O=C(CC1C(=O)Nc2ccccc2N1CC(=O)N1CCCC1)Nc1ccc(Br)cc1 (stereo unspecified)	11	3	0
CCOc1ccc(NS(=O)(=O)c2cc(C(=O)N3CCN(c4ccccc4O)CC3)ccc2Cl)cc1	-13	11	1
CN(CC(=O)Nc1ccccc1Br)C(=O)c1cc(Cl)nc2ccccc12	-16	-2	-4
COC(=O)c1c(C)[nH]c(C(=O)C(C)OC(=O)c2cnc(C)cn2)c1C (stereo unspecified)	-12	1	2
C[C@@H]1CN([C@H](C)CO)C(=O)c2c(c3ccccc3n2C)-c2ccccc2CO[C@@H]1CN(C)S(=O)(=O)c1cccs1	-1	-7	-12
Cn1c(=O)c2c(ncn2CC(=O)OCC(=O)NNC(=O)c2ccc(Cl)cc2)n(C)c1=O	-9	2	3
CCCS(=O)(=O)NC(=O)C1(C)CCN(C(=O)c2ccc(OC)cc2)C1 (stereo unspecified)	-15	-2	2
CCCN(CC(=O)Nc1ccccc1OC)C(=O)Cc1ccc2c(c1)CCC2	1	1	-3
CC(C)(C)S(=O)N1Cc2cc(C(=O)N3CCc4ccccc4C3)nc(-c3cccc(-c4cccnc4)c3)c2[C@@H]1CCO (stereo partly specified)	1	-12	3
OCCN(Cc1ccccc1)Cc1ncccc1O	-10	-2	1
CCN(CC(=O)Nc1cccc(OC)c1)C(=O)c1cccc(S(=O)(=O)N2CCc3ccccc32)c1	-3	-1	-4
O=C(COC(=O)c1n[nH]c(=O)c2ccccc12)NC1CCCCC1	-9	2	1
CC(C)=CCC/C(C)=C/CNC(=O)C[C@H]1C[C@H](C(=O)N2CCOCC2)[C@@]2(C)c3[nH]c4cc(-c5ccco5)ccc4c3CCN2C1=O	-16	-8	-12
COc1ccc(OC)c(C(=O)COC(=O)c2cccnc2SC)c1	-9	1	1

The list goes on, overlapping the part above by 2 compounds.
SMILES	UUG fidelity	MT1-MMP act inh	MT1-MMP act inh RFP
CC(C)=CCC/C(C)=C/CNC(=O)C[C@H]1C[C@H](C(=O)N2CCOCC2)[C@@]2(C)c3[nH]c4cc(-c5ccco5)ccc4c3CCN2C1=O	-16	-8	-12
COc1ccc(OC)c(C(=O)COC(=O)c2cccnc2SC)c1	-9	1	1
O=C(NCC(O)c1nc2ccccc2[nH]1)c1ccc(Br)cc1 (stereo unspecified)	-9	5	5
CCCN=C1N(C)C[C@@H]2[C@@H]3C(=O)N(Cc4ccccc4)C(=O)[C@@H]3[C@](C)(C(=O)OC)N12	-18	2	3
O=C(C=C(C(=O)c1ccccc1)c1ccccc1)c1ccccc1	-13	2	-3
CC(Sc1n[nH]c(-c2cccs2)n1)C(=O)Nc1ccccc1F (stereo unspecified)	-7	-2	-5
CC1=CC(=O)C2=C(C)CCC3C(C)C(=O)OC3C12 (stereo unspecified)	-5	-1	1
CC(C)[C@H](NC(=O)[C@@H]1Cc2c([nH]c3ccccc23)C2c3ccccc3C(=O)N21)C(=O)N1CCC[C@H]1C(=O)O (stereo partly specified)	3	-1	11
CC(=O)c1ccccc1OCC(=O)Nc1cccc(S(=O)(=O)N2CCCC2)c1	-19	13	-10
CN(C(=O)CCCN1C(=O)c2ccccc2C1=O)C1CCCCC1	-9	2	3
O=C(Nc1cccc(F)c1)c1ccc(-c2cccnc2)c2ccoc12	-30	0	-10
COc1ccc(N2CCN(C(=O)/C=C/[C@H]3O[C@@H](n4ccc(=O)[nH]c4=O)[C@H](O)[C@@H]3O)CC2)cc1	-13	3	2
COc1ccc(NC(=O)c2cc(C3CCCCN3S(=O)(=O)c3ccc(C#N)cc3)on2)c(C)c1 (stereo unspecified)	-5	3	-10
CCCN1CCN(S(=O)(=O)c2ccc3c(c2)CCC(=O)N3)CC1	-16	4	0
COc1ccc(CCn2c(C)cc(C(=O)CN3C(=O)C(=O)N(C4CCCC4)C3=O)c2C)cc1OC	8	-3	-12
CC1CCCCC1NC(=O)NC(=O)COC(=O)c1cncc(Br)c1 (stereo unspecified)	-8	-2	3
COc1ccc(/C=C/C(=O)Nc2ccc(C)c(S(=O)(=O)N3CCOCC3)c2)cc1	-17	2	-26
Cc1ccc(S(=O)(=O)N2CCN(C(=O)c3ccc(COc4ccccc4)o3)CC2)cc1	-37	-1	-6
Cc1ccc(OCC(=O)Nc2ccccc2C(=O)NC2CC2)cc1	2	1	-3
COc1ccc(CCNC(=O)c2ccc(CS(=O)(=O)Cc3ccc(C)cc3)o2)cc1OC	3	3	-10
COc1ccc(NC(=O)CCN=C2NS(=O)(=O)c3ccccc32)cc1S(=O)(=O)N(C)C	-25	0	1
O=C(COC(=O)Cn1[nH]c(=O)c2ccccc2c1=O)NNC(=O)c1ccc(Br)cc1	-15	0	6
COc1cc(OC)cc(-c2sc3ccc(OC)cc3c2-c2ccc(OCCN3CCOCC3)cc2)c1	-35	-5	-7
COc1ccc(S(=O)(=O)N2CCCCCC2)cc1C(=O)N1CCN(c2ccc(F)cc2)CC1	-6	-2	-5
Cc1occc1C(=O)Nc1cc(S(=O)(=O)N2CCOCC2)ccc1OC(C)C	-13	6	2
O=C(CSc1nnc(C2CC2)n1C1CC1)Nc1cccc(Br)c1	-5	1	-1
CC(=O)C1=CCC(c2ccccc2F)N(S(=O)(=O)c2ccc(C)cc2)C1 (stereo unspecified)	-3	6	2

Random excerpt: three records from the list, in no set order.
SMILES	UUG fidelity	MT1-MMP act inh	MT1-MMP act inh RFP
COc1ccc(/C=C/C(=O)Nc2ccc(C)c(S(=O)(=O)N3CCOCC3)c2)cc1	-17	2	-26
Cc1occc1C(=O)Nc1cc(S(=O)(=O)N2CCOCC2)ccc1OC(C)C	-13	6	2
CCCN1CCN(S(=O)(=O)c2ccc3c(c2)CCC(=O)N3)CC1	-16	4	0

(next part)
SMILES	UUG fidelity	MT1-MMP act inh	MT1-MMP act inh RFP
CCN1CCN(C(=O)C(C)Sc2nnc3nc(C)cc(C)n23)CC1 (stereo unspecified)	-15	-1	3
O=C(NCc1ccco1)c1[nH]c(C(F)(F)F)nc1-c1ccccc1	5	0	0
COc1ccc(NS(=O)(=O)c2cccc(C(=O)N3CCN(S(=O)(=O)c4ccccc4)CC3)c2)cc1	-13	-9	-2
COc1ccccc1CNC(=O)CCN=C1NS(=O)(=O)c2ccccc21	-18	0	0
CCCN(CC(=O)Nc1ccccc1OC)C(=O)CSc1ccc(Br)cc1C	-9	-2	0
O=C(NCc1cccnc1)C1CCN(S(=O)(=O)c2cccc(C(F)(F)F)c2)CC1	-20	-1	3
CCCCN(C(=O)c1cc(S(=O)(=O)N2CCCCC2)ccc1Cl)c1c(N)n(CCC)c(=O)[nH]c1=O	-14	-2	2
CC1=C(O)c2ccccc2C(=O)C1=O	-9	11	1
CN(C)C(=O)c1ccc(NC(=O)c2cccc(S(=O)(=O)N3CCN(Cc4ccccc4)CC3)c2)cc1	-19	-7	-16
CC(=O)O[C@H]1[C@@H](O)[C@H](O)[C@H](Oc2c(O)c(C)c3c4c2[C@@H](C)CC[C@@H]4[C@@H](C)C[C@@H]3C=C(C)C)O[C@H]1C	-7	1	4
COc1ccc(NC(=O)c2cc(-c3cc(Cl)ccc3OC)n[nH]2)c(C)c1	-10	-9	-8
Cc1ccccc1NC(=O)Cc1nc(COC(=O)c2ccc(S(C)(=O)=O)c([N+](=O)[O-])c2)cs1	-7	-4	-7
CN1CCN(C2CN(Cc3cn(Cc4ccccc4C(F)(F)F)nn3)S(=O)(=O)C2)CC1 (stereo unspecified)	5	2	6
O=C(NC(=S)Nc1ccccc1CO)C1CCCCC1	-24	4	2
CC(OC(=O)c1cc(S(=O)(=O)N2CCOCC2)ccc1Br)C(=O)N1CCOCC1 (stereo unspecified)	-13	1	3
CN(c1ccccc1)S(=O)(=O)c1cccc(NC(=O)Cc2ccc(Cl)cc2)c1	-9	3	-12
Cc1ccc(S(=O)(=O)N2CCN(C(=O)CCC(=O)Nc3ccc(Br)c(C)c3)CC2)cc1	1	-4	-7
CC(C(=O)N(C)CC(=O)Nc1ccccc1C(F)(F)F)N1C(=O)c2ccccc2C1=O (stereo unspecified)	-9	-4	1
Cc1ccc(S(=O)(=O)N2C[C@H]3n4c(=O)ccc(=O)n4C[C@H](OC(=O)NCc4ccccc4F)[C@@]3(O)C2)cc1	-16	-3	-3
CCOc1ccc(CN(C)Cc2cc(=O)oc3c(C)c(C)ccc23)cc1OC	-4	-7	-19
CC(C)(C)N1C(=O)c2c(C(=O)OCc3ccccc3)[nH]c(-c3ccccc3)c2C1=O	-14	0	-4

Bioassay records: PubChem, several laboratories
